Rce1 inhib = inhibitors of yeast Ras-converting enzyme. Q03530. yeast membranes, quenched prenylated peptide cleavage fluorescence. calls only. 290,000 compounds, 0.27% hits. AID 2563;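 active = fall in fluorescence gain of 50% or more versus controls, with final raw signal at or below 3038400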;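 note: plate controls were neutral control wells for no effect and wells lacking membranes for full effect; tested at 10 µM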
Target sequence (Q03530 whole entry, looked up): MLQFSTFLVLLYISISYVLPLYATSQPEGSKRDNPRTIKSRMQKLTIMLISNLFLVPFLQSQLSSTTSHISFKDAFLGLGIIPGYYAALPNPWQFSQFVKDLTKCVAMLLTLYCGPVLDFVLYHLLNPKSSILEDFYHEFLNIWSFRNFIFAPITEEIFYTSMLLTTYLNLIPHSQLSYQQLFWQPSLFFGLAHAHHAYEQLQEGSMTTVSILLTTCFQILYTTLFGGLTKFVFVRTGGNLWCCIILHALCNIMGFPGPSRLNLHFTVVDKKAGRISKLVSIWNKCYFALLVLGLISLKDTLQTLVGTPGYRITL
UUG fidelity = modulators of start codon recognition fidelity in yeast. AID 602363. activity score, % at 18.7 µM. 350,000 compounds, 0.13% hits. S. cerevisiae UUG-firefly luciferase reporter, luminescence/redox ratio;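 active = replicate mean at a twofold rise or more, about +100% in these data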;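 note: firefly luciferase made from a UUG start codon reports start codon fidelity; reporter light over untreated wells divided by growth signal over untreated wells; some hits fall short of that in this replicate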
MT1-MMP act inh = MT1-MMP (human) activation inhibition; AID 651647; GFP/RFP ratio change, % at 20 µM; HT1080 RFP-PRO-GFP cells, GFP/RFP ratio fluorescence, overnight; percent of plate control window, DMSO zero; 360,000 compounds, 0.061% hits;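 active = GFP/RFP ratio change of at least 30% with cell ATP level not reduced by more than half and red fluorescence within 50% of control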; note: strong numbers were not always called active
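Test system: HT1080 cells expressing an RFP-PRO-GFP fluorescent reporter construct / Compound dosing: single-point 20 µM compound, 1% DMSO / Schedule: cells overnight before dosing, compound overnight, 37 °C, 5% CO2 / Evaluation: GFP/RFP fluorescence ratio / Control set: DMSO and RFP-L50D-GFP cell wells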
HIV Env fusion = HIV envelope-mediated fusion inhibition | HeLa-JRFL Env/CEM21 cell fusion, luciferase | inhibition, % at 12.3 µM | 360,000 compounds, 1.1% hits;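 active = mean replicate inhibition score of at least 50 and every replicate individually at or above 50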;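 note: 0% = plate neutral controls and 100% = maraviroc near 300 nM; one replicate is shown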
CSC inhib = blocks cancer stem cells; cancer stem cell-like cells viability, luminescence; inhibition, % at 7.5 µM; 300,000 compounds, 1.1% hits; AID 2717;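 active = mean at 75% or more and at least half the replicates too; tested in HMLE shEcad cells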;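 note: 0% = median of negative and 100% = median of positive control wells; the first replicate is given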
PABP polyA inh = blocks human PABP binding to poly(A) RNA; P11940; inhibition, % at 35 µM; fluorescence polarization; 290,000 compounds, 1% hits;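 active = 50% or more with normal probe brightness, or confirmed in later tests; about a fifth of its hits are not listed in these tables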;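 note: calls also rest on retests at 20 µM and on dose response follow-up; controls were probe without protein and protein plus probe with vehicle; some compounds called inactive have numbers as strong as hits; many hits fall short of the cut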
Target sequence (P11940 whole entry, looked up): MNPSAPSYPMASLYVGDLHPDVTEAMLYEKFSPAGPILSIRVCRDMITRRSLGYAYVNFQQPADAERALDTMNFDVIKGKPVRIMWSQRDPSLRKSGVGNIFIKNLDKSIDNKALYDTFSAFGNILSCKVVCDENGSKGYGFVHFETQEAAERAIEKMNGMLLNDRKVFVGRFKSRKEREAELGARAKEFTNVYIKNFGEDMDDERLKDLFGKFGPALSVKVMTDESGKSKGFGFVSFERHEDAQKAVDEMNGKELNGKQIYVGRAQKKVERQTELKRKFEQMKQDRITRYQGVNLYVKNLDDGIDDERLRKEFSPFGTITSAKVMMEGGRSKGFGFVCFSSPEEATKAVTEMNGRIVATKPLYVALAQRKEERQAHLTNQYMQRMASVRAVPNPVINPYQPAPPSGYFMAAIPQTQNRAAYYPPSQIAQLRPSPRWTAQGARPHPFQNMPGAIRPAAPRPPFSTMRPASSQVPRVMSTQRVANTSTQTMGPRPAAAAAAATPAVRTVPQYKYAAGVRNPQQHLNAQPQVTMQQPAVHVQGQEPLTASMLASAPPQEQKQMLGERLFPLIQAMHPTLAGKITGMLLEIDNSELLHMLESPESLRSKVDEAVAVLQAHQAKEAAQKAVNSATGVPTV
eIF4H FP inh = inhibitors of RNA binding by human eIF4H | Q15056 | eIF4H fluorescence polarization binding assay | inhibition, % at 35 µM | 290,000 compounds, 0.94% hits;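 active = 50% or more with normal probe brightness, or confirmed in later tests; about a fifth of its hits are not listed in these tables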;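 note: calls also rest on retests at 20 µM and on dose response follow-up; 0% = protein and probe with vehicle and 100% = probe without protein; strong numbers were not always called active; many hits fall short of the cut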
MT1-MMP act inh RFP = also measured in MT1-MMP act inh; calls as there; RFP signal change, %; measured here: RFP expression control read;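 0 = vehicle wells; hits needed this value within 50% of zero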
An asterisk follows results filed as active; i = inactive; / = not tested or not shown.

Value order: Rce1 inhib	UUG fidelity	MT1-MMP act inh	MT1-MMP act inh RFP	HIV Env fusion	CSC inhib	PABP polyA inh	eIF4H FP inh
CC(C)C(NC(=O)c1ccccc1F)C(=O)NCC(c1ccco1)N1CCCCC1 (stereo not given)
  /	-2	2	4	-71	-11	/	/
Cc1c(Oc2ccc(C(F)(F)F)cc2[N+](=O)[O-])ccc2c3c(c(=O)oc12)CCC3
  i	/	-12	-5	/	-8	-2	-8
O=C(NCc1ccc(Cl)s1)c1cc(COc2c(F)cccc2F)on1
  i	/	-10	-2	-9	12	-5	-3
CCc1ccc(-c2cc(C(=O)O)c3ccccc3n2)s1
  i	4	0	2	-71	8	0	-10
O=C(O)c1ccc(S(=O)(=O)NCc2ccc3c(c2)OCO3)cc1
  i	-29	0	8	2	-6	-9	-18
Cc1ccc2[nH]c(=O)c(-c3noc(C(C)C)n3)cc2c1
  i	-22	1	4	2	-1	-2	2
O=C(/C=C/Nc1ccc([N+](=O)[O-])cc1Br)c1cccc2ccccc12
  i	-18	7	11	-29	23	-7	5
CC1(C)CC(=O)C2=C(C1)NC(SCC(=O)Nc1ccccc1)=C(C#N)C21CCCCC1
  i	-3	0	-10	/	0	0	26
O=S(=O)(NCCC1=CCCCC1)c1cccc2nsnc12
  i	/	-2	-2	7	/	-4	-6
Cc1ccc(-c2csc3nc(C)n(-n4cccc4)c(=O)c23)o1
  i	-11	-1	2	/	2	-2	-1
CC1CCCCN1CCNC(=O)C1CCCN(c2ncnc3c2nc2n3CCCCC2)C1 (stereo not given)
  i	-14	1	2	-8	-2	8	19
Nc1nonc1-c1nc2ccccc2[nH]1
  i	-19	3	-7	i	6	-8	0
Cc1cc(C)n(CC(=O)n2c3c(c4ccccc42)CCCC3)n1
  i	-18	-8	-3	/	-6	4	3
COC(=O)C1CCN(S(=O)(=O)CCNC(=O)c2ccccc2)CC1
  /	-3	3	-2	-13	/	/	/
CCN(CC)S(=O)(=O)c1cc([N+](=O)[O-])ccc1NNC(=O)Nc1ccc(F)cc1
  i	-5	6	-6	57*	-6	12	2
CCCS(=O)(=O)N1CCCC(C(=O)N2CCC(Cc3ccccc3)CC2)C1 (stereo not given)
  i	13	-3	-2	/	-16	5	-12
CC1(C)C(C=C(Cl)Cl)C1C(=O)OCc1cccc(Oc2ccccc2)c1 (stereo not given)
  /	1	-3	-9	22	13	/	/
CC1=CC(=O)[C@@H](OC(=O)Nc2ccc(C)cc2)[C@@H](c2ccccc2Br)N1C
  /	-5	1	0	-24	/	/	/
COc1ccc(OC(C)C(=O)NC2CCCCCCC2)cc1 (stereo not given)
  i	-11	3	0	-2	-5	-1	-8
CCOC(=O)C(C(=O)NCc1ccc(F)cc1)c1ncc(C(F)(F)F)cc1Cl (stereo not given)
  i	-5	0	1	/	-21	7	-9
O=C(CSC1CC(=O)N(CCc2ccccc2)C1=O)Nc1cccc(Cl)c1 (stereo not given)
  i	-4	7	11	/	-16	-1	-5
COc1ccc(NC(=O)c2cc3ccccn3n2)cc1
  i	-18	3	-1	-45	26	-3	-7
CC(=O)NC1(C(F)(F)F)C(=O)NC(C)=C1C#N (stereo not given)
  i	-40	-2	-1	/	-11	8	11
CC(=O)Nc1cccc(NC(=O)CS(=O)(=O)c2cn(CC(=O)N3CCCC3)c3ccccc23)c1
  i	-19	0	3	/	-7	0	-7
O=C1CC(c2ccccc2)CC(O)=C1C=NC1CCCCCC1 (stereo not given)
  i	-18	5	-3	-13	-5	-7	-7
O=C1[C@@H]2Cc3c([nH]c4ccccc34)C(c3ccc(Cl)cc3)N2C(=O)CN1CCO (stereo not given in full)
  i	4	0	-1	-3	0	7	8
C/C(=C\c1cccc(Cl)c1Cl)C(=O)c1c(C)cc(C)[nH]c1=O
  i	13	-3	-2	11	2	4	-9
COCCCNC(=O)Cc1ccccc1OC
  i	-14	-3	0	/	-9	-3	-5
CCOc1ccc(NC(=O)c2ccc3c(c2)OCCO3)cc1S(=O)(=O)N(CC)CC
  /	7	3	-2	/	4	/	/
O=C(OC1CCCCC1=O)c1cccc(S(=O)(=O)NCc2ccccc2)c1 (stereo not given)
  i	/	3	-9	/	-1	-7	-14

4 entries out of the list, arranged by heavy-atom count, lowest first.
Value order: Rce1 inhib	UUG fidelity	MT1-MMP act inh	MT1-MMP act inh RFP	HIV Env fusion	CSC inhib	PABP polyA inh	eIF4H FP inh
COCCCNC(=O)Cc1ccccc1OC
  i	-14	-3	0	/	-9	-3	-5
Cc1cc(C)n(CC(=O)n2c3c(c4ccccc42)CCCC3)n1
  i	-18	-8	-3	/	-6	4	3
O=C(NCc1ccc(Cl)s1)c1cc(COc2c(F)cccc2F)on1
  i	/	-10	-2	-9	12	-5	-3
CC1=CC(=O)[C@@H](OC(=O)Nc2ccc(C)cc2)[C@@H](c2ccccc2Br)N1C
  /	-5	1	0	-24	/	/	/

Further entries.
Value order: Rce1 inhib	UUG fidelity	MT1-MMP act inh	MT1-MMP act inh RFP	HIV Env fusion	CSC inhib	PABP polyA inh	eIF4H FP inh
O=[N+]([O-])c1cc(S(=O)(=O)N2CCCC2)ccc1OCCOc1ccccc1
  /	-10	6	-2	/	27	/	/
O=S(=O)(c1ccccc1)n1ccc2cccnc21
  /	-3	2	3	/	-15	41	-5
COc1ccccc1-n1c(=O)[nH]c2c(C(N)=O)nc(-c3cccnc3)nc21
  i	-12	-1	7	6	-2	-5	-7
Cc1ccc(C(=O)c2coc3ccc(O)c(CN4CCN(C)CC4)c23)cc1
  i	-6	-23	-11	-47	0	0	-1
COc1ccc(S(=O)(=O)N2CCN(Cc3cc4c(cc3Br)OCCO4)CC2)cc1
  /	0	2	5	8	/	/	/
CCOC(=O)c1ccccc1NC(=O)CSc1nncn1C
  i	/	1	0	1	2	4	-12
CC(=O)C1=C(O)C(=O)N(c2ccccn2)C1c1ccc(C)cc1 (stereo not given)
  i	-27	5	2	-14	-3	7	-7
CCOC(=O)C1=C(C)NC(=O)NC1c1ccc(-c2ccccc2F)o1 (stereo not given)
  i	-7	2	-4	24	-10	4	-4
O=C(CCl)Nc1ccc(-c2ccccc2)cc1
  i	/	-5	-2	-5	5	-2	4
Cc1ccc(NC(=O)COC(=O)Cn2cnc3ccccc32)c([N+](=O)[O-])c1
  i	-15	0	-1	-4	-5	20	2
Cc1ccc(NC(=O)CNC(=O)c2ccc(C(C)(C)C)cc2)cc1S(=O)(=O)N1CCOCC1
  /	1	3	-5	10	-5	/	/
Cn1c(=O)c2c(nc(Br)n2CCc2ccccc2)n(C)c1=O
  i	9	2	-4	/	-8	0	-3
CCS/C(N)=N/N=C/c1cc(C)ccc1O
  i	/	14	6	/	5	-4	-12
O=C(COc1cccc(NC(=O)c2cccs2)c1)c1ccc(F)cc1
  i	/	0	-4	/	-4	-1	-1
CCN(c1ccccc1)S(=O)(=O)c1ccc(C(=O)Nc2ccccc2OC)cc1
  /	-6	-2	-2	-8	17	/	/
CC12CCC(C(=O)Nc3ccc(Cl)cc3)([C@H](Br)C1=O)C2(C)C (stereo not given in full)
  i	1	-2	0	36	12	10	-4
COc1ccc(C(c2sc3ncnn3c2O)N2CC(C)OC(C)C2)cc1OC (stereo not given)
  i	-7	-1	-2	25	-7	-8	2
CN(C)S(=O)(=O)c1cccc(NC(=S)NCCCn2ccnc2)c1
  i	/	1	1	1	7	12	-8
O=C(CC1S/C(=N/N=C/c2c[nH]c3ccc(OCc4ccccc4)cc23)NC1=O)Nc1ccccc1 (stereo not given)
  i	/	3	-8	16	-11	4	-7
COc1ccc(/C=C2\CCCC3C2=NN(C(=O)CSc2n[nH]c(N)n2)C3c2ccc(OC)cc2)cc1 (stereo not given)
  i	-6	1	-5	8	13	6	-2
O=c1c(Cl)c(Cl)cnn1Cc1nnc(-c2ccc(Cl)cc2)o1
  i	/	-9	-25	-346	/	-1	28
CN1CCN(CC(=O)NN2CC(=O)N(c3ccc(F)cc3)CC2=O)CC1
  i	/	-5	-3	14	7	3	3
CCOC(=O)NC(=O)CSc1nc2ccc(C)cc2[nH]1
  i	/	5	3	10	-3	-7	-9
CCOC(=O)c1cncc(C(=O)O)c1
  /	-13	2	2	/	-1	4	8
O=S(=O)(Nc1nc2c(s1)CCCC2)c1ccc2ccccc2c1
  i	-19	1	-7	/	-4	-12	3
CCOc1ccc(N(C)C(=O)CCc2nnc3ccc(NCc4ccco4)nn23)cc1
  i	-9	0	-2	4	4	14	9
CC(C)(C)CC(=O)NCc1ccc(F)cc1
  i	-5	-5	0	2	2	-8	-7
O=C(c1nc2ccccc2[nH]1)c1ccccc1[N+](=O)[O-]
  i	-5	0	2	-5	4	11	-2
Oc1ccccc1C1=NN(c2ccccc2)C(c2ccccc2)C1 (stereo not given)
  i	-9	-2	-7	10	85*	8	-10
Cc1ccc(S(=O)(=O)NC2(C(F)(F)F)C(=O)Nc3c2c(=O)[nH]c(=O)n3-c2ccccc2)cc1 (stereo not given)
  i	/	-1	2	-14	-10	13	10
COc1ccc2c(Cl)c(-c3nnc(SCC(N)=O)n3C)sc2c1
  i	-15	4	0	-1	-15	8	7
CN(C)c1nc(Nn2cnnc2)nc(N(C)C)n1
  i	/	-4	-4	-1	-19	5	-2
COc1ccc(C2(C(=O)NCCc3ccccc3)CCCC2)cc1OC
  i	3	1	-1	/	-2	0	2
COc1ccc(C2CC(c3ccc4ccccc4c3OC(C)=O)=NN2C(=O)/C=C/c2ccccc2)cc1 (stereo not given)
  i	7	1	1	0	3	28	0
COc1ccccc1N1CCN(C(=O)CCNC(=O)Cn2ccc3ccccc3c2=O)CC1
  /	-13	0	-2	13	-3	5	-7
Cc1ccc(S(=O)(=O)NC(CC(=O)O)c2ccco2)cc1 (stereo not given)
  i	-6	3	2	/	/	6	-7
COC(=O)c1[nH]c2cc(OC)ccc2c1N=CN(C)C
  i	/	3	2	5	-1	-3	3
CCCNC(=O)C1(C)CCCN(Cc2cc(-c3ccccc3)n(C)n2)C1 (stereo not given)
  /	-11	2	3	15	/	/	/
O=C(NCc1ccccn1)c1ccc(OC2CCN(Cc3cccs3)CC2)cc1
  i	-14	-6	-3	-11	-8	-10	-10
COc1ccc(S(=O)(=O)CCC(=O)N2CC(=O)N(CCc3ccccc3)C(=O)C2)cc1
  /	-6	0	3	/	-7	0	-8
N#Cc1nc(-c2ccco2)oc1NCCN1CCOCC1
  i	-5	4	7	-12	1	-2	-3
CCOC(=O)C1=C(N)N(c2cc(S(=O)(=O)N3CCOCC3)ccc2Cl)C(=O)C1
  i	/	-4	2	-34	-10	0	4
CC1CCCC(NC(=O)CN(C)CC(=O)Nc2ccc(F)cc2)C1C (stereo not given)
  /	-9	2	2	5	-5	/	/
CCOC(=O)c1c(C)n(C)c2ccc(OCC(O)CN3CCN(C)CC3)cc12 (stereo not given)
  i	11	-2	5	-20	-1	27	-11
COCCN(CC(=O)Nc1cccc(C)c1C)C(=O)c1cc2c(s1)CCC2
  /	1	0	3	15	/	/	/
COCCOC(=O)C1=C(N)OC2=C(C(=O)CC(C)(C)C2)C1c1cccnc1 (stereo not given)
  i	-13	0	2	-15	-2	-9	-10
CCC(C)N(C(=O)c1csnn1)C(C(=O)NCc1ccc(F)cc1)c1ccco1 (stereo not given)
  i	-14	-3	0	14	-9	3	-8
O=c1c2ccccc2nc2c3ccccc3c(NCc3ccco3)nn12
  i	-23	7	0	-52	-3	29	5
COc1cccc(C(C(=O)NC2CCCC2)N(C(=O)c2ccco2)c2ccccc2F)c1OC (stereo not given)
  i	-7	-5	5	-17	/	7	-6

Bioassay records (PubChem)

A portion of the library; the hit share may differ from the screen's.
